Assay outcomes: PubChem, several laboratories
eIF4H inh: inhibitors of RNA binding by human eIF4H | Q15056 | eIF4H fluorescence polarization binding assay | inhibition, % at 35 µM | 0.94% of 290,000 active;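 active = 50% or more with normal probe brightness, or confirmed in later tests; about a fifth of its hits are not listed in these tables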;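 also: calls also rest on retests at 20 µM and on dose response follow-up; 0% = protein and probe with vehicle and 100% = probe without protein; strong numbers were not always called active; many hits fall short of the cut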
Env fusion inh: HIV envelope-mediated fusion inhibition. HeLa-JRFL Env/CEM21 cell fusion, luciferase. 1.1% of 360,000 active. AID 651610. inhibition, % at 12.3 µM;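 active = mean replicate inhibition score of at least 50 and every replicate individually at or above 50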;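 also: 0% = plate neutral controls and 100% = maraviroc near 300 nM; one replicate is shown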
Rce1 inh: yeast Ras-converting enzyme inhibition; Q03530; yeast membranes, quenched prenylated peptide cleavage fluorescence; calls only; 0.27% of 290,000 active;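 active = fall in fluorescence gain of 50% or more versus controls, with final raw signal at or below 3038400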;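 also: plate controls were neutral control wells for no effect and wells lacking membranes for full effect; tested at 10 µM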
Target sequence (Q03530 whole entry, looked up): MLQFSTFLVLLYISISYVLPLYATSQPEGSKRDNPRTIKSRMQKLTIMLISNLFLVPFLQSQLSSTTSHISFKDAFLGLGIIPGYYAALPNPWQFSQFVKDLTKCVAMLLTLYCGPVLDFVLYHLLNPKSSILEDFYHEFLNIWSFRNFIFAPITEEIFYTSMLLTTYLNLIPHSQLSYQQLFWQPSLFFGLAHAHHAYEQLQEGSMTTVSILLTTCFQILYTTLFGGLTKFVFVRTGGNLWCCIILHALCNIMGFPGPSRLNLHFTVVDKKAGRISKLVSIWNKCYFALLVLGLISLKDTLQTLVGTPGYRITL
MT1-MMP act inh: MT1-MMP (human) activation inhibition | P50281 | HT1080 RFP-PRO-GFP cells, GFP/RFP ratio fluorescence, overnight; percent of plate control window, DMSO zero | GFP/RFP ratio change, % at 20 µM | 0.061% of 360,000 active | AID 651647;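 active = GFP/RFP ratio change of at least 30% with cell ATP level not reduced by more than half and red fluorescence within 50% of control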; also: strong numbers were not always called active
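Compound: 20 µM single dose, 1% DMSO / System: HT1080 RFP-PRO-GFP cells / Controls: DMSO and RFP-L50D-GFP cell wells / Read-out basis: GFP/RFP fluorescence ratio / Schedule: overnight compound exposure at 37 °C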
Yeast UUG start: yeast start codon fidelity modulation; S. cerevisiae UUG-firefly luciferase reporter, luminescence/redox ratio; activity score, % at 18.7 µM; 0.13% of 350,000 active;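 active = replicate mean at a twofold rise or more, about +100% in these data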;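 also: firefly luciferase made from a UUG start codon reports start codon fidelity; reporter light over untreated wells divided by growth signal over untreated wells; some hits fall short of that in this replicate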
CSC inhib: cancer stem cell inhibition; cancer stem cell-like cells viability, luminescence; inhibition, % at 7.5 µM; 1.1% of 300,000 active; AID 2717;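 active = mean at 75% or more and at least half the replicates too; tested in HMLE shEcad cells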;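 also: 0% = median of negative and 100% = median of positive control wells; the first replicate is given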
PABP FP inh: PABP-poly(A) binding inhibition; P11940; PABP-poly(A) RNA binding, fluorescence polarization; inhibition, % at 35 µM; AID 2014; 1% of 290,000 active;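 active = 50% or more with normal probe brightness, or confirmed in later tests; about a fifth of its hits are not listed in these tables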;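 also: calls also rest on retests at 20 µM and on dose response follow-up; controls were probe without protein and protein plus probe with vehicle; some compounds called inactive have numbers as strong as hits; many hits fall short of the cut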
Target sequence (P11940 whole entry, looked up): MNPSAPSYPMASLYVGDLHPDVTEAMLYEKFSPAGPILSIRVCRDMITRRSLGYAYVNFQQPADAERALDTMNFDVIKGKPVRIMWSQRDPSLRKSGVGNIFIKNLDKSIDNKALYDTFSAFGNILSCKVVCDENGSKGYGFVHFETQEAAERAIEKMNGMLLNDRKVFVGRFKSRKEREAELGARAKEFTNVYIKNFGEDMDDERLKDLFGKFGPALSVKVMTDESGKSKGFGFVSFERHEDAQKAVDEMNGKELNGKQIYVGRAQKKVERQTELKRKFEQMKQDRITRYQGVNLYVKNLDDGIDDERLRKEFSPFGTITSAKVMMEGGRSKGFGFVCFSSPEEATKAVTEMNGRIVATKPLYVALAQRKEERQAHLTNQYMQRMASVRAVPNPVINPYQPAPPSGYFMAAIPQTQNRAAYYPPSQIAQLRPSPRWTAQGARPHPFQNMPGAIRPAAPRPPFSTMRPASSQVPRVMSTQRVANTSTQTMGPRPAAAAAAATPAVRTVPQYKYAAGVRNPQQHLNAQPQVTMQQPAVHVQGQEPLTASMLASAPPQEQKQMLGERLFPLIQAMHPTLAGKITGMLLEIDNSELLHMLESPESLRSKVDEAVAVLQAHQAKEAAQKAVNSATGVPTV
MT1-MMP act inh RFP: also measured in MT1-MMP act inh; calls as there; RFP signal change, %; measured here: RFP expression control read;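 0 = vehicle wells; hits needed this value within 50% of zero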
* hit, by the source's call; i = inactive; nt = no result given; & = joins results of further samples.

1: Nc1cc(N)nc(SCC(=O)Nc2ccc(Br)cc2Cl)n1
2: Cc1nn(C(C)C(=O)Nc2sc3c(c2C#N)CCCC3)c(C)c1[N+](=O)[O-] (stereo unspecified)
3: O=[N+]([O-])c1ccc(-[n+]2nc(-c3ccccc3)nn2-c2ccccc2)cc1
4: NC(=S)NC(=O)c1ccccc1
5: O=C1CCC(C(=O)OCc2nnc(-c3ccc(Cl)cc3)o2)=NN1
6: O=C(CCNC(=O)C1CCN(S(=O)(=O)c2ccc(F)cc2)CC1)NC1CC1
7: N/C(=N\OC(=O)CCn1cccc(C(F)(F)F)c1=O)c1ccc(Cl)cc1
8: COc1ccc(CN(CC2CCCO2)C(=O)CN2C(=O)COc3ccccc32)cc1OC (stereo unspecified)
9: CCCCCCn1c(=O)n2n(c1=O)C[C@]1(OC(=O)Nc3c(C)noc3C)CN(S(=O)(=O)c3ccc(C)cc3)C[C@]1(O)C2
10: CCC(C)c1ccc(C2C3=C(Nc4nc(N)[nH]c(=O)c42)c2ccccc2C3=O)cc1 (stereo unspecified)

entry no.,1,2,3,4,5,6,7,8,9,10
eIF4H inh,3,-8,-12,5,nt,-16,3,8,nt,-6
Env fusion inh,nt,nt,12,-1,-22,-2,19,-24,-29,45
Rce1 inh,i,i,i,i,i,i,i,i,nt,i
MT1-MMP act inh,0,5,13,-1,-1,-5,5,2,-2,10
MT1-MMP act inh RFP,-3,-9,1,1,-3,-3,-2,0,-14,1
Yeast UUG start,-2,-13,5,-19,-9,-16,-23,14,-11,-14
CSC inhib,-1,nt,-4,-3,-9,24,-15,8,nt,-4
PABP FP inh,12,1,2,1,nt,9,-17,10,nt,-3

Compounds shown so far with a nitro group on carbon (2):
2: Cc1nn(C(C)C(=O)Nc2sc3c(c2C#N)CCCC3)c(C)c1[N+](=O)[O-] (stereo unspecified)
3: O=[N+]([O-])c1ccc(-[n+]2nc(-c3ccccc3)nn2-c2ccccc2)cc1

entry no.,2,3
eIF4H inh,-8,-12
Env fusion inh,nt,12
Rce1 inh,i,i
MT1-MMP act inh,5,13
MT1-MMP act inh RFP,-9,1
Yeast UUG start,-13,5
CSC inhib,nt,-4
PABP FP inh,1,2

Next part:
11: O=C(CCCCCNC(=O)c1ccccc1)N/N=C/c1ccco1
12: O=C(CN1CCN(C(c2ccccc2)c2ccccc2)CC1)N1CCN(c2ccccc2)CC1
13: CCOc1ccccc1NC(=O)CSc1nc2ccccc2nc1N1CCCC1
14: CC(=O)c1ccc(S(=O)(=O)NCCC(=O)NC(C)c2ccncc2)cc1 (stereo unspecified)
15: Cc1c(C(=O)NC2CCCCC2C)oc2ccccc12 (stereo unspecified)
16: CN(C)/C=N/c1nc2nccc(-c3cccs3)n2n1
17: CCn1c(SCC(=O)Nc2ccc(N(C)C)cc2)nnc1C1CC1
18: C[C@@H]1CN([C@@H](C)CO)C(=O)CCCn2nncc2CO[C@@H]1CN(C)C(=O)Nc1ccc(C(C)(C)C)cc1
19: CC1(C(=O)O)CCC(C(=O)Nc2ccccc2)C1(C)C (stereo unspecified)
20: CC1(C(=O)NC2CCCCCCC2)CC1(Cl)Cl (stereo unspecified)

entry no.,11,12,13,14,15,16,17,18,19,20
eIF4H inh,9,6,0,nt,0,-13,-3,nt,-6,1
Env fusion inh,13,6,-2,-6,-2,-3,6,5,-51,8
Rce1 inh,nt,i,i,nt,i,i,i,nt,i,i
MT1-MMP act inh,0,-2,-9,0,-1,3,1,-1,3,-3
MT1-MMP act inh RFP,5,-5,-8,6,4,7,2,0,2,0
Yeast UUG start,-12,-2,-7,-8,2,nt,-13,-3&0,-15,-13
CSC inhib,-5,-5,14,nt,-4,-4,-10,nt,-6,nt
PABP FP inh,3,10,11,nt,0,-3,-3,nt,-6,-2

Entries by screen from the entries so far.
MT1-MMP act inh RFP, nos. 12 to 20: -5, -8, 6, 4, 7, 2, 0, 2, 0
MT1-MMP act inh, nos. 12 to 20: -2, -9, 0, -1, 3, 1, -1, 3, -3

(list continues)
21: CCN=C1SC(C(=O)Nc2ccc(OCC)cc2)CC(=O)N1CC (stereo unspecified)
22: CC(C)c1cccc(C(C)C)c1NC(=O)CNCc1ccccc1F
23: CCN(CC)C(=O)c1cc2c(=O)n3ccccc3nc2s1
24: Cc1cc2nc(SCCOC(=O)Nc3ccccc3)nc(C)c2cc1C
25: CC(C)[C@H](NC(=O)N1CCn2c1nc1ccccc12)C(=O)NC1CC1
26: Cc1cc(C)cc(NC(=O)c2cccc(NC(=O)c3ccco3)c2)c1
27: Cc1cccc(-c2nc3c(c(SCC(=O)N4CCCC4)n2)COC(C)(C)C3)c1
28: O=C1CC(NS(=O)(=O)c2ccc3ccccc3c2)CN1c1ccccc1 (stereo unspecified)
29: COc1ccc(C(C)(C)C)cc1NC(=O)COC(=O)c1ccc([N+](=O)[O-])o1
30: Cc1cccc(N2CCN(C(=O)C(Cc3ccccc3)NC(N)=O)CC2)c1C (stereo unspecified)

entry no.,21,22,23,24,25,26,27,28,29,30
eIF4H inh,0,-1,0,-8,nt,nt,3,nt,-3,-6
Env fusion inh,2,-8,nt,2,6,-4,4,9,6,14
Rce1 inh,i,i,i,i,i,i,i,i,i,i
MT1-MMP act inh,-3,-1,2,0,7,3,-2,2,0,4
MT1-MMP act inh RFP,-6,3,1,2,7,0,-2,-5,1,4
Yeast UUG start,nt,nt,-15,-7,-17,3,-11,nt,-18,-14
CSC inhib,-5,3,-4,18,-16,4,12,-6,1,1
PABP FP inh,10,14,0,-19,nt,nt,-11,nt,14,-3

31: O=C(OCC#CCSc1nnc(-c2cccc3ccccc23)o1)c1cnc[nH]1
32: CCN(CC)CCCNC(=O)c1cc(Nc2ccc(OC)cc2OC)nc2ccccc12
33: O=C(O)c1cc(NN=C2c3ccccc3-c3ccccc32)ccc1Cl
34: O=C1CC(Sc2nnnn2C2CCCCC2)C(=O)N1c1ccccc1 (stereo unspecified)
35: COc1cccc(CN(C)CC(=O)Nc2ccccc2N2CCOCC2)c1OC
36: Cc1ccc(S(=O)(=O)N2CCN(C(=O)C3CSC4(C)CCC(=O)N34)CC2)cc1C (stereo unspecified)
37: C=CCc1cc(C)ccc1OCCOCCn1ccnc1
38: Cn1nnnc1SCC(=O)Nc1ccccc1Cl
39: Cc1cc(=O)[nH]c(SC(C)C(=O)Nc2cccc3ccccc23)n1 (stereo unspecified)
40: COc1ccc(C(=O)N2N=C3CC(C)(C)OCC3C2c2ccccc2)cc1 (stereo unspecified)

entry no.,31,32,33,34,35,36,37,38,39,40
eIF4H inh,nt,-2,41,4,1,nt,2,-3,-1,-6
Env fusion inh,-34,-3,0,-2,-8,8,nt,nt,7,6
Rce1 inh,nt,i,i,i,nt,nt,i,i,i,i
MT1-MMP act inh,8,-4,1,1,-3,2,3,4,-1,5
MT1-MMP act inh RFP,0,-1,5,6,-7,-1,0,4,-3,5
Yeast UUG start,-21,-8,10,nt,5,-10,nt,-14,-14,11
CSC inhib,nt,-1,41,2,-1,13,22,-3,-5,-7
PABP FP inh,nt,-10,39,-2,0,nt,4,-7,0,1

41: CCOC(=O)c1sc2nc(C)nc(SCC(N)=O)c2c1C
42: O=C(CC1CCCC1)N1CCN(S(=O)(=O)c2c(F)cccc2F)CC1
43: O=c1nc(Nc2ccc(Br)cc2)sc2ccc([N+](=O)[O-])cc12
44: Cc1ccc(C)c2[nH]c(=O)c(CN(Cc3cccnc3)C(=S)NCc3ccco3)cc12
45: O=C(CCCc1nc2ccccc2s1)NCc1ccccc1
46: COc1cc(SC)ccc1C(=O)NCCN1CCOCC1
47: Cc1ccc(S(=O)(=O)NC2CCCCCC2)cc1C(N)=O
48: C=CCN1c2ccccc2[C@]23C[C@@H](C(=O)OC)N(C(=O)C4CCC4)C2=NC(C(=O)OC)=C(C(=O)OC)[C@H]13
49: COc1cccc(NC(=O)CN2CCc3ccccc3C2)c1
50: CC1CCN(C(=O)CSc2nnc(-c3ccccc3F)o2)CC1

entry no.,41,42,43,44,45,46,47,48,49,50
eIF4H inh,-8,nt,-14,-5,2,2,9,-2,2,6
Env fusion inh,-6,-14,-4,4,-6,5,51,-9,7,-11
Rce1 inh,i,nt,i,i,i,i,i,i,i,i
MT1-MMP act inh,3,2,3,-7,-7,2,3,-3,-1,3
MT1-MMP act inh RFP,7,-2,2,-3,8,1,4,3,-1,3
Yeast UUG start,nt,0,nt,nt,2,nt,-14,-7,3,-12
CSC inhib,nt,nt,-3,-6,-6,-18,-2,11,6,-22
PABP FP inh,5,nt,-18,1,-1,11,0,8,-1,1

51: COc1ccc(C(=O)Nc2ccc(C)c(S(=O)(=O)N3CCCCCC3)c2)cc1
52: CNS(=O)(=O)c1cccc(C(=O)NCC(c2cccs2)N2CCOCC2)c1 (stereo unspecified)
53: CCC(=O)Nc1cc(C(=O)OCC(=O)c2ccc(Cl)cc2Cl)ccc1C
54: COc1ccc(/C=N/Nc2nc3ccccc3o2)cc1OC
55: CC1CC(C)CN(C(=O)c2cccc(NC(=O)CC3SC(N4CCCCC4)=NC3=O)c2)C1 (stereo unspecified)
56: O=C1C2C3C=CC(C3)C2C(=O)N1c1cccc2cccnc12 (stereo unspecified)
57: CC(NCC(=O)NCCc1ccc(S(N)(=O)=O)cc1)c1ccc(F)cc1 (stereo unspecified)
58: NC(=O)[C@@H]1CC2(CC(c3cccc(NC(=O)[C@H]4CCC(=O)N4)c3)=NO2)CN1C(=O)c1ccc(Cl)cc1 (stereo partly specified)
59: O=C(N1CCOCC1)N1CCN(c2ccc(F)cc2)CC1
60: Cn1nnnc1SCC(=O)N1c2ccccc2Sc2ccc(Cl)cc21

entry no.,51,52,53,54,55,56,57,58,59,60
eIF4H inh,-2,nt,-8,-6,nt,9,0,0,-3,2
Env fusion inh,13,-4,-13,nt,9,nt,4,-2,nt,nt
Rce1 inh,i,nt,i,i,nt,nt,i,i,i,nt
MT1-MMP act inh,1,-1,-1,1,-1,-2,3,3,nt,-2
MT1-MMP act inh RFP,-23,-1,5,-3,-14,0,2,2,nt,-4
Yeast UUG start,nt,nt,-9,-19,-1,-24,-18,2,nt,-26
CSC inhib,4,-6,-18,6,-5,-4,3,18,-12,-11
PABP FP inh,5,nt,0,8,nt,2,-7,4,6,-5

Three compounds already listed, ordered by SMILES length, lowest first.
47: Cc1ccc(S(=O)(=O)NC2CCCCCC2)cc1C(N)=O
22: CC(C)c1cccc(C(C)C)c1NC(=O)CNCc1ccccc1F
8: COc1ccc(CN(CC2CCCO2)C(=O)CN2C(=O)COc3ccccc32)cc1OC (stereo unspecified)

entry no.,47,22,8
eIF4H inh,9,-1,8
Env fusion inh,51,-8,-24
Rce1 inh,i,i,i
MT1-MMP act inh,3,-1,2
MT1-MMP act inh RFP,4,3,0
Yeast UUG start,-14,nt,14
CSC inhib,-2,3,8
PABP FP inh,0,14,10
